MT1-MMP reporter: inhibitors of MT1-MMP promoter transcription, cell-based, luciferase reporter, luminescence (AID 618). 0.62% of 87,000 active. calls from a first round at 10 µM; hits with a dose series show EC50 in µM. MT1-MMP promoter luciferase reporter cells, luminescence;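 active = over half of the reporter light lost at 10 µM or EC50 under 50 µM; inactive = the rest and hits that failed the dose series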;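 also: actives suppress MT1-MMP promoter-driven transcription so potencies describe inhibitors; HT1080 fibrosarcoma cells; overnight exposure; toxic or luciferase-blocking compounds were not removed from the actives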
Starred values were filed as active, the others as inactive; i = inactive. These rows are one share of the data; the hit share may differ from the screen's.

canonical_smiles	MT1-MMP reporter
Cn1c(N)c(C(=O)COC(=O)c2cc(C3CC3)nc3ccccc23)c(=O)n(C)c1=O	i
Cc1ccc(-c2nc3ccsc3c(=O)o2)cc1	i
CC1CC(C)CN(CC(=O)N2CCCc3c2c(=O)oc2ccc(OCc4ccccc4)cc32)C1 (configuration not stated)	i
CCCCCCN(C(=O)CCCCCN1C(=O)NC(c2ccccc2)C(C(=O)OCc2ccccc2)=C1C)C(C(=O)NCCCC)c1ccc(OCC(=O)OC)c(C(=O)OC)c1 (configuration not stated)	i
CC(C)NC(=O)C1CC(=O)N(C(C)c2ccccc2)C1 (configuration not stated)	i
COc1cc(OC)c(OC)cc1CN1CCc2ccccc2C1	i
COc1ccccc1CNC(=O)c1ccccc1OC	i
COc1cc(CNn2nnnc2N)ccc1OCc1c(Cl)cccc1Cl	i
O=C(Nc1ccccc1Cl)C1CCN(Cc2cnn(-c3ccccc3)c2-n2cccc2)CC1	i
CCc1ccc(NC(=O)c2noc3c2CCC3)cc1	4µM*
COc1ccc(S(=O)(=O)N(C)CC(=O)NCc2cccnc2)cc1Cl	i
N/C(=N\OC(=O)Oc1ccccc1)c1ccc(Cl)cc1	i

As a working copy, 4 of the compounds above.
canonical_smiles	MT1-MMP reporter
Cn1c(N)c(C(=O)COC(=O)c2cc(C3CC3)nc3ccccc23)c(=O)n(C)c1=O	i
Cc1ccc(-c2nc3ccsc3c(=O)o2)cc1	i
CC1CC(C)CN(CC(=O)N2CCCc3c2c(=O)oc2ccc(OCc4ccccc4)cc32)C1 (configuration not stated)	i
CCCCCCN(C(=O)CCCCCN1C(=O)NC(c2ccccc2)C(C(=O)OCc2ccccc2)=C1C)C(C(=O)NCCCC)c1ccc(OCC(=O)OC)c(C(=O)OC)c1 (configuration not stated)	i

(cont.)
canonical_smiles	MT1-MMP reporter
Cc1cccc(CN2CCN(CC(=O)N3CCCC3)C2=O)c1	i
CC1C(C(=O)Nc2ccccc2)CCCC1(C)C(=O)O (configuration not stated)	i
CCC(=O)Nc1ccccc1C(=O)NC1CCCCC1	i
C=CCOc1ccccc1C1NC(=O)NC(C)=C1C(=O)NCc1ccccc1 (configuration not stated)	i
CN1C[C@@H]2C(c3ccc(C(F)(F)F)cc3)C3(c4cccnc4)CC2(C3)[C@H]1c1ccccc1 (some centres not stated)	i
COc1ccc2c(c1[N+](=O)[O-])CCC/C2=N/OC(=O)c1ccccc1SC	i
COC(=O)c1ccc(C23CC4(C2)[C@H](CN(Cc2cccnc2)[C@@H]4c2ccccc2)C3c2ccc(Cl)nc2)cc1 (some centres not stated)	i
COc1ccc(-n2c(C)cc(C=O)c2C)cc1Cl	i
COc1ccccc1CN1C(=O)CN(C2CCCCCC2)C(=O)C1c1ccc(F)cc1 (configuration not stated)	i
COC(=O)c1cccc(C23CC4(C2)[C@H](CN(Cc2ccc(C(F)(F)F)cc2)[C@@H]4c2ccccc2)C3c2ccccc2)c1 (some centres not stated)	i
CC(C)(C)c1ccc(OC(=O)c2ccc3nsnc3c2)cc1	i
COc1cc(C2C(C(C)=O)=C(O)C(=O)N2CCN(C)C)ccc1O (configuration not stated)	i

Part of the list above in order of molecular weight, lowest first:
canonical_smiles	MT1-MMP reporter
COc1ccc2c(c1[N+](=O)[O-])CCC/C2=N/OC(=O)c1ccccc1SC	i
COC(=O)c1ccc(C23CC4(C2)[C@H](CN(Cc2cccnc2)[C@@H]4c2ccccc2)C3c2ccc(Cl)nc2)cc1 (some centres not stated)	i
COC(=O)c1cccc(C23CC4(C2)[C@H](CN(Cc2ccc(C(F)(F)F)cc2)[C@@H]4c2ccccc2)C3c2ccccc2)c1 (some centres not stated)	i

By substructure, the entries above containing fluorine (3)
canonical_smiles	MT1-MMP reporter
CN1C[C@@H]2C(c3ccc(C(F)(F)F)cc3)C3(c4cccnc4)CC2(C3)[C@H]1c1ccccc1 (some centres not stated)	i
COc1ccccc1CN1C(=O)CN(C2CCCCCC2)C(=O)C1c1ccc(F)cc1 (configuration not stated)	i
COC(=O)c1cccc(C23CC4(C2)[C@H](CN(Cc2ccc(C(F)(F)F)cc2)[C@@H]4c2ccccc2)C3c2ccccc2)c1 (some centres not stated)	i

2 entries picked at random from the list so far, as already listed:
canonical_smiles	MT1-MMP reporter
COc1ccc(S(=O)(=O)N(C)CC(=O)NCc2cccnc2)cc1Cl	i
COc1cc(C2C(C(C)=O)=C(O)C(=O)N2CCN(C)C)ccc1O (configuration not stated)	i

(continued)
canonical_smiles	MT1-MMP reporter
CCN(CC)C(=O)CSc1nc2cc(OC)c(OC)cc2c(=O)n1Cc1ccc(Cl)cc1	i
CCCS(=O)(=O)C(=C(Nc1ccc(OC)cc1)Nc1ccc(OC)cc1)S(=O)(=O)CCC	i
COc1ccc(-c2c(C#N)c(N)nc3c2CCCCCC3)cc1OC	i
COC(=O)c1ccc(C(NC(=O)OCc2ccccc2)/C(I)=C/[C@@H](C)C(=O)NCc2ccc(OC)c(O)c2)cc1 (some centres not stated)	i
CCC1=C2CC[C@H]3C(=O)N(CC(=O)OC)C(=O)[C@H]3[C@H]2[C@@]2(C)C(=O)N(Cc3ccccc3)C(=O)N2C1=O	i
O=C(NCC(=O)N(CC1CCCO1)C1(C(=O)NC2CCCC2)CCCCC1)c1ccccc1 (configuration not stated)	i
O=C(O)c1cc(C2CC2)nc2ccccc12	i
COC(=O)c1ccc(C(/C=C/[C@@H](C)C(=O)NCc2ccccc2)NC(=O)OCc2ccccc2)cc1 (some centres not stated)	i
CCOc1ccc(CC(=O)C2C(=O)CC(C)(C)CC2=O)cc1OCC	i
CCOc1ccc(Cc2nnc(SCC(N)=O)n2C)cc1	i
CCCCNC(=O)Nc1ccccc1C(=O)Nc1ccc(OC)cc1	i
O=C(NCCCn1ccnc1)c1ccc(Br)o1	i

Other entries:
canonical_smiles	MT1-MMP reporter
CCOC(=O)CS(=O)(=O)c1ccccc1	i
COc1ccc(NC(=O)CCCCC#Cc2ccccc2)cc1	i
COc1ccc(C2C(C(=O)NCc3cccnc3)c3cc(OC)c(OC)cc3C(=O)N2C)cc1 (configuration not stated)	i
CC1(C)OCC(CSC2=C(SCC3COC(C)(C)O3)C(=O)c3ncccc3C2=O)O1 (configuration not stated)	i
Cc1ccc(NC(=O)/C(=C/c2cccc([N+](=O)[O-])c2)NC(=O)C2CCCCC2)cc1	i
CCOC(=O)Cc1c(C)[nH]c(=S)[nH]c1=O	i
CCC1=C(OC(=O)N(CC)CC)N2C(=O)OC(=NCC3CC3)[C@]2(Cc2ccccc2)[C@H]2C1=CC[C@H]1C(=O)NC(=O)[C@H]12	i
Cc1ccc(-c2nc3cccnc3o2)cc1NC(=O)COc1ccc(C(C)(C)C)cc1	i
COc1ccc(C)cc1S(=O)(=O)N(CC(=O)Nc1ccc2c(c1)OCCO2)Cc1ccccc1	i
COC(=O)[C@@]1(Cc2ccccc2)[C@H]2c3cc(C(=O)N(C)C)n(Cc4ccccn4)c3C[C@H]2CN1C(=O)c1ccccc1	i
CCCN1Cc2cccc(C(=O)NC(C)c3cccs3)c2C1=O (configuration not stated)	i
CC(C)OCCCNC(=O)c1ccc(CS(=O)(=O)Cc2ccccc2F)o1	i

Assay outcomes (PubChem)
